Screening results: PubChem, Johns Hopkins Ion Channel Center
Kir21 block: inhibitors of mouse Kir2.1 inward-rectifier potassium channel; HEK293-Kir2.1, FluxOR thallium flux fluorescence; stronger effect = lower value; B-score at 10 µM; 310,000 compounds, 0.85% hits; AID 1672, 2009;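 active means fluorescence ratio B-score at or below minus 3 SD of library scores, with starting-brightness B-score within 2 SD, cut at about -4.2 in these data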;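 further: channel flux triggered by added potassium and thallium sulfate stimulus; B-score of peak minus minimum fluorescence over baseline after thallium stimulus; more negative B-score means stronger Kir2.1 block with less thallium influx; some compounds called inactive have numbers as strong as hits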
Target sequence (P35561 whole entry, looked up): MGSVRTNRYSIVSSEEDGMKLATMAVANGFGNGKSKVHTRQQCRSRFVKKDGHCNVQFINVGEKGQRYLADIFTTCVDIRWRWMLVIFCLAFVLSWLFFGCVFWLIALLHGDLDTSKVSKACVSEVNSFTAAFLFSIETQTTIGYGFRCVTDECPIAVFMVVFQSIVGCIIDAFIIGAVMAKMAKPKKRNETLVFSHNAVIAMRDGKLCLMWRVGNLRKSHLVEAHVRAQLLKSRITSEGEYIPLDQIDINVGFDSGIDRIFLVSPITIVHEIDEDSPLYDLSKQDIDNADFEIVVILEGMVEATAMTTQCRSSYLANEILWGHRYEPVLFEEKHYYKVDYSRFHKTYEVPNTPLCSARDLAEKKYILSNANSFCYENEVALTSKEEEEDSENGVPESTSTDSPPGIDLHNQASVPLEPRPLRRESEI
Active calls of the source: *. Only part of the results is shown; most or all hits stand in other tables.

Kir21 block | compound
-1.6 | COc1ccc(S(=O)(=O)N2CCOC2CNC(=O)C(=O)NCCc2ccccc2)cc1 (stereo unspecified)
0.17 | COc1cc(CNc2ccc(O)cc2)cc(Br)c1OCc1ccccc1F
0 | CCOc1ccc2nc(SCc3ccc(F)cc3)sc2c1
1.4 | CC(C)(C)C(=O)Nc1ccc(/C=C/C(=O)c2ccco2)cc1
0.08 | COc1ccc(OC)c(N(CC(=O)N2CCCCC2)S(=O)(=O)c2ccc(OC)c(OC)c2)c1
-0.42 | N#Cc1c2c(c(Nc3ccccc3)n3c1nc1ccccc13)CCC2
-0.3 | C=CCn1cc(C(=O)NCc2ccco2)c(=O)c2cc(S(=O)(=O)N3CCCCCC3)ccc21
-0.67 | Cc1nc2nc(CCc3ccccc3)nn2c(C)c1Cl
2 | Cc1ccc(NS(=O)(=O)c2ccc(C(=O)NCc3ccncc3)cc2)cc1
-1.4 | O=C(NCCc1c[nH]c2ccccc12)C1CCN(S(=O)(=O)c2ccc(F)cc2)CC1
2.8 | O=C(Nc1ccc2c(c1)nc1n2CCSC1)c1ccco1
-1.6 | Cc1ccccc1NC(=O)N1CCCN(c2ccc(C#N)cn2)CC1
0.36 | CCOc1ccc(NC(=O)C2CCCN(S(=O)(=O)c3c(C)n[nH]c3C)C2)cc1 (stereo unspecified)
1.1 | COC(=O)N/N=C/c1ccc(-c2cc(Cl)ccc2Cl)o1
-1.3 | COc1cc(C(=O)N2CCc3ccccc32)c([N+](=O)[O-])cc1OC
1.9 | O=C(Nc1cccc(Cl)c1)c1ccc(F)c(S(=O)(=O)NCc2ccc3c(c2)OCO3)c1
-0.64 | Cc1nc2ccccc2c(=O)n1NCc1cccs1
-0.96 | O=C(CO/N=C/c1ccc(OC(F)F)cc1)NCc1ccco1
1 | Cc1ccc(N(C(=O)Cn2nnc(-c3ccc(C)o3)n2)C(C(=O)NC2CCCC2)c2ccncc2)cc1 (stereo unspecified)
-0.02 | COc1ccc(OC)c(Nc2cc3ccccc3c(=O)[nH]2)c1
-0.02 | CCC(=O)N1CCc2cc(S(=O)(=O)NCCC(=O)Nc3ccccc3C)ccc21
0.16 | C/C(CCc1ccccc1)=N\NC(=S)NCCc1ccccc1
0.11 | COC(=O)c1ccc(COC(=O)C2CCN(S(=O)(=O)c3ccc(C)c(C)c3)CC2)o1
1.4 | N#CC1=C(N)Oc2n[nH]c(-c3ccccc3)c2C1c1cccc(OC(=O)N2CCOCC2)c1 (stereo unspecified)
-0.68 | COc1ccc(NC(=O)CSc2ccc(NC(C)=O)cc2)cc1S(=O)(=O)N1CCCCC1
-0.8 | S=c1[nH]nc(C2CCCCC2)n1/N=C/c1ccc(Br)s1
-1.6 | COc1cc([N+](=O)[O-])ccc1NC(=S)NCc1ccccn1
-0.49 | O=C(CN(Cc1ccccc1)S(=O)(=O)c1ccccc1)N/N=C/c1ccc([N+](=O)[O-])cc1
0.57 | O=C(CCNS(=O)(=O)c1ccc(Br)s1)Nc1ccc(Cl)cc1
1.3 | COCCNc1nnc(Cc2ccccc2)c(=O)[nH]1
0.58 | CC(=O)Nc1ccc(S(=O)(=O)Nc2nccc(/C=C/c3ccc(Cl)cc3)n2)cc1
-0.61 | CC(=O)Nc1cccc(OCc2c(F)cccc2Cl)c1
1.5 | O=C(Nc1nnc(CCc2ccccc2)s1)c1cccs1
-0.17 | COc1cccc(NC(=O)Cn2c(=O)n(CCC(=O)NCc3ccco3)c(=O)c3ccccc32)c1
0.26 | COc1ccc(C)cc1NC(=O)c1ccc(N(C)S(C)(=O)=O)cc1
1.9 | COc1ccc(-c2nnc(SCC(=O)Oc3ccc(C)cc3)o2)cc1
-3.5 | Fc1ccc(COc2ccc(C(=S)N3CCCC3)cc2)cc1
-0.04 | CCOC(=O)COc1ccccc1/C=C1/NC(=O)NC1=O
1.1 | Cc1nc(SCC(=O)N2CCc3ccccc32)n[nH]1
-3.1 | Cc1ccc(CNc2ccc(S(=O)(=O)N3CCOCC3)cc2[N+](=O)[O-])cc1
-0.06 | CCCNC(=O)CN1C(=O)COc2ccc(S(=O)(=O)N3CCCCCC3)cc21
-0.41 | Cc1cc(C#N)c(C)c(SCc2[nH]nc3c2C(c2ccccc2)C(C#N)=C(N)O3)n1 (stereo unspecified)
0.3 | COCCn1c(=NC(=O)c2cc(-c3cccs3)nc3ccccc23)sc2cc(S(N)(=O)=O)ccc21
1.4 | CCc1ccc(N2CC(C(=O)OCC(=O)NC3CCS(=O)(=O)C3)CC2=O)cc1 (stereo unspecified)
-0.17 | Cc1ccc(O)c(NC(=O)c2ccc3c(c2)C(=O)N(Cc2ccco2)C3=O)c1
-0.17 | O=C(Nc1ccc2c(c1)oc1ccccc12)N1CCOCC1
0.72 | Cc1cccc(CCNC(=O)CCNC(=O)Cn2ccc3ccccc3c2=O)c1
-0.67 | Cc1nnsc1SC(C)C(=O)O (stereo unspecified)
-0.87 | COc1ccc(C)cc1NC(=O)COC(=O)c1ccc(OCc2ccc(Cl)cc2Cl)c(OC)c1
2.1 | Cc1nc2ccc(NC(=O)c3ccco3)cc2s1
0.71 | O=C(O)C1CCN(C(=O)Cc2ccccc2)CC1
1.1 | Cc1cc(CSc2ccccc2)ccc1NC(=O)c1ccc(Br)cc1
0.85 | CC(Sc1nnc(-c2ccc(Cl)cc2)n1C)C(N)=O (stereo unspecified)
-0.64 | c1ccc(-c2csc(-n3cnnn3)n2)cc1
-2.3 | S=C(Nc1ccc2nc(-c3ccccn3)c(-c3ccccn3)nc2c1)N1CCCCCC1
-1.4 | C/C(=N/NC(=O)CN1CCN(Cc2ccccc2Cl)CC1)c1cccnc1
-1.1 | CCOc1cc(-c2nc(C)c(C(C)=O)n2O)ccc1OCC(=O)Nc1ccc(F)cc1
1.3 | COc1cccc(C(=O)Nc2ccc3c(c2)C(=O)N(CCC(=O)O)C3=O)c1
-0.03 | CC(=O)Nc1nc(C(=O)Nc2c(C)n[nH]c2C)cs1
0.03 | O=S(=O)(/C=C/c1ccccc1)N1CCNCC1

A different layout for some results above.
structure: CCOc1cc(-c2nc(C)c(C(C)=O)n2O)ccc1OCC(=O)Nc1ccc(F)cc1
  Kir21 block: -1.1

structure: COc1cccc(C(=O)Nc2ccc3c(c2)C(=O)N(CCC(=O)O)C3=O)c1
  Kir21 block: 1.3

structure: CC(=O)Nc1nc(C(=O)Nc2c(C)n[nH]c2C)cs1
  Kir21 block: -0.03

More records:
Kir21 block | compound
0.11 | COc1ccc(NC(=O)c2ccc(-c3ccc(OC)cc3)s2)cc1
0.02 | COc1cc(S(=O)(=O)NCc2ccccn2)ccc1Cl
-0.03 | Cc1cc(OCCCC(=O)NCCN2C(=O)S/C(=C\c3cccnc3)C2=O)ccc1Cl
-0.35 | O=C(OCCCN=C1NS(=O)(=O)c2ccccc21)c1cccs1
0.13 | CC(C)c1ccc(S(=O)(=O)c2cc3cc(Br)ccc3oc2=O)cc1
2.8 | COc1ccc(CNC(=O)C2CCCN(S(=O)(=O)c3ccc(-n4cnnn4)cc3)C2)cc1 (stereo unspecified)
0.91 | CCOc1ccc(-c2nc3n(c(=O)c2C#N)CCS3)cc1
1.2 | CCn1nc(CC(=O)Nc2nnc(CC(=O)N3CCCC3)s2)c2ccccc2c1=O
-0.46 | CCOc1cccc(C(c2c(C)n(C)n(-c3ccccc3)c2=O)c2c(C)n(C)n(-c3ccccc3)c2=O)c1OC
-0.11 | O=C(NC(=S)Nc1ccccn1)c1cncc(Br)c1
0.79 | CCOc1ccc(C(=O)NCC(=O)N2CCC(C)CC2)cc1OCC
-0.2 | C/C(CC(=O)Nc1ccc2c(c1)OCO2)=N\NC(=O)OC(C)(C)C

Brought forward from above: 7 compounds, then new ones.
Kir21 block | compound
2.8 | COc1ccc(CNC(=O)C2CCCN(S(=O)(=O)c3ccc(-n4cnnn4)cc3)C2)cc1 (stereo unspecified)
0.91 | CCOc1ccc(-c2nc3n(c(=O)c2C#N)CCS3)cc1
1.2 | CCn1nc(CC(=O)Nc2nnc(CC(=O)N3CCCC3)s2)c2ccccc2c1=O
-0.46 | CCOc1cccc(C(c2c(C)n(C)n(-c3ccccc3)c2=O)c2c(C)n(C)n(-c3ccccc3)c2=O)c1OC
-0.11 | O=C(NC(=S)Nc1ccccn1)c1cncc(Br)c1
0.79 | CCOc1ccc(C(=O)NCC(=O)N2CCC(C)CC2)cc1OCC
-0.2 | C/C(CC(=O)Nc1ccc2c(c1)OCO2)=N\NC(=O)OC(C)(C)C
2.2 | O=C(Nc1ccc2nc3n(c(=O)c2c1)CCCC3)c1ccccc1[N+](=O)[O-]
-0.42 | COc1ccc(C(=O)Nc2ccc(S(=O)(=O)N3CCN(C)CC3)cc2)cc1
1.1 | Cc1[nH]n(-c2ccccc2)c(=O)c1C(=O)c1ccc([N+](=O)[O-])cc1
1.7 | Cc1cc(=O)n(CCc2ccccc2)c(O)c1C#N
0 | CC(O)c1nc2ccccc2n1Cc1ccccc1 (stereo unspecified)
-1.1 | Cn1c(=O)c2c(nc(-n3ccnc3)n2Cc2ccccc2)n(C)c1=O
0.68 | Cc1c(CCC(=O)O)c(=O)oc2cc3occ(-c4ccc(Br)cc4)c3cc12
-0.16 | COc1cc2c(cc1OC)C(c1ccc(C(F)(F)F)cc1)CC(=O)N2 (stereo unspecified)
-1.9 | CSc1nc2c(c(=O)[nH]c(=O)n2C)n1CCCc1ccccc1
2.5 | COc1ccccc1OCC(=O)NNC(=O)Nc1ccccc1
-0.61 | Cc1ccc2oc(C(=O)N3CCN(CC(=O)NC(C)C)CC3)c(C)c2c1
-0.8 | CCOc1nnc(C)c2c(C)n(-c3cccc(OC)c3)nc12
-1.5 | O=C(CCCN1C(=O)c2ccccc2C1=O)Nc1sc2c(c1C(=O)NCc1ccco1)CCC2
-0.72 | COc1ccc(C(=O)NNS(=O)(=O)c2ccc(C)cc2)cc1
-0.19 | COC(=O)CC1c2ccccc2S(=O)(=O)N1Cc1ccccc1 (stereo unspecified)
0.11 | O=C(NCc1ccccc1)C(c1cccnc1)N(C(=O)c1csnn1)c1ccccc1 (stereo unspecified)
-1.7 | CN(c1ccccc1)S(=O)(=O)c1ccc(C(=O)Nc2nnc(C3CC3)s2)cc1
0.01 | Cc1ccc(CN2CCN(C(=O)CCC(=O)Nc3nnc(C(C)C)s3)CC2)c(C)c1
0.01 | CCCCSc1nc2c(c(=O)n1CC)SC(C)C2 (stereo unspecified)
2 | COc1cc(/C=N/NC(=O)c2ccc(Cl)cc2)ccc1OCC(=O)N1CC(C)OC(C)C1 (stereo unspecified)
-0.82 | Cc1ccc(C)c(NS(=O)(=O)c2ccc3c(c2)NC(=O)CO3)c1
0.44 | COCCCNC(NC(=O)c1ccc(Cl)cc1)C(Cl)(Cl)Cl (stereo unspecified)
-0.27 | CC(/C=N/NC(=O)c1ccncc1)=C\c1ccccc1
-1.5 | COc1cc(OC)cc(-n2nnnc2SCC(=O)NCCc2ccc(OC)c(OC)c2)c1
0 | O=c1c([N+](=O)[O-])cccn1Cc1cccc(Cl)c1
-1.6 | Cc1ccc(CNC(=O)C2CCN(S(=O)(=O)N3CC(C)CC(C)C3)CC2)cc1 (stereo unspecified)
-0.31 | COc1ccc(Cl)cc1NC(=O)c1ocnc1C
0.02 | CCOc1ccc(S(=O)(=O)Nc2ccncc2)c(C)c1C
-1.6 | O=C(c1cccnc1Nc1ccc2c(c1)CCC2)N1CCOCC1
0.02 | CC(C)OCCCn1c(=S)[nH]c2ncccc2c1=O
0.14 | C[C@@H](NC(=O)c1nc[nH]c1C(=O)N[C@@H](CCCCNC(=O)OC(C)(C)C)C(=O)OC(C)(C)C)c1ccccc1
0.52 | O=C(O)C1CCCN1S(=O)(=O)c1ccccc1 (stereo unspecified)
1.4 | CCCN(CCC)C(=O)CP(=O)(c1ccccc1)c1ccccc1
0.74 | COc1ccc(OCCC(=O)N2CCN(C)CC2)cc1
0.34 | CCCNS(=O)(=O)c1ccc(OCC(=O)N2CCC(C(=O)OCC)CC2)cc1
0.77 | Cc1cccnc1NC(=O)CCn1c(=O)oc2ccccc21
1.4 | Cc1ccc2ccc(C3C(=O)c4ccccc4C3=O)nc2c1
0.55 | CC(C)(C)SCCNC(=O)CN(c1ccc(F)cc1)S(=O)(=O)c1ccccc1
0.1 | CN(c1ccc(C(=O)NCc2ccco2)cc1)S(C)(=O)=O
-0.61 | C/C(=N/NC(=O)CCc1ccccc1)c1ccc2c(c1)OCO2
0.45 | CC(=O)Nc1ccc(C(=O)NC2CCSc3ccccc32)cc1 (stereo unspecified)
-0.8 | COc1ccccc1/C=C(\NC(=O)c1ccc(OC)c(OC)c1)C(=O)Nc1cc([N+](=O)[O-])ccc1C
1.4 | CS(=O)(=O)c1ccc(-c2nnn(CC(N)=O)n2)cc1
-0.08 | COc1ccc(N2CCN(c3nc(=S)n(-c4ccccc4)c(C)c3C(C)=O)CC2)cc1
-0.03 | O=C(N/N=C1/CC2C=CCC12)c1cccs1 (stereo unspecified)
2.7 | COc1ccc(CNC(=O)C/C(C)=N/NC(=O)C23CC4CC(CC(C4)C2)C3)cc1
0.78 | CCc1ccc(Nc2nnc(SCC(=O)Nc3sccc3C(N)=O)s2)cc1
-2.7 | CCOC(=O)c1cc(C#N)c(N2CCN(C)CC2)nc1-c1ccccc1
0.8 | COc1ccc(NC(=O)c2c(Cl)nc3ccccn23)cc1
-0.05 | Cc1ccc(NC(=O)c2nc3nccc(C)n3n2)c(C)c1
0.82 | Cc1ccc(NC(=O)COc2ccccc2)cc1Cl
-1.4 | COc1ccc(/C=N/NC(=O)c2ccccc2O)cc1Cn1cc([N+](=O)[O-])cn1
-0.19 | COc1ccc(N2C(=O)[C@@H]3[C@H](C2=O)[C@H]2C=CC=NN2[C@@H]3C(=O)Nc2ccc(Cl)cc2)cc1
-0.52 | CC1(C)CC(=O)C=C(c2cccnc2)C1
